Assay outcomes (PubChem)
Rango release inh = qHTS Assay for Inhibitors of RanGTP induced Rango (Ran-regulated importin-beta cargo) - Importin beta complex dissociation | Potency, µM (top dose mostly 46.1 µM), inactives show at the highest dose activity change, negative = inhibition | 340,000 tested, 0.071% active | Biochemical FRET Rango-importin beta, RanGTP-induced dissociation | Snurportin-1 (Homo sapiens) + GTP-binding nuclear protein Ran (Homo sapiens) + Importin … | AID 540253, 2011; active means falling FRET ratio curve, often poorly fitted, with flat reads before Ran was added; inconclusive means other falling curves, or compound fluorescence or quenching; inactive means flat or rising ratio curve;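 further: potency means the concentration at half of the fitted maximal effect; % of control where 0% means no effect; nearly all actives have a fitted effect of over 45% in size; -100% = wells without RanGTP and RCC1; the record marks most hits as doubtful in a second field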
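Rango (0.1 uM)–importin beta (0.25 uM) complex; RanGTP-RCC1 trigger; 45 min RT; CFP/YFP FRET read.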
Rango complex inh = qHTS Assay for Inhibitors of Rango (Ran-regulated importin-beta cargo) - Importin beta complex formation. Importin subunit beta-1 (Homo sapiens), Q14974. Rango CFP/YFP FRET sensor + importin beta, 45 min. Potency, µM (top dose mostly 92.2 µM), inactives show at the highest dose inhibition of complex formation. 340,000 tested, 0.031% active. AID 540263, 2011; active = rising FRET ratio curve, often small or poorly fitted; inconclusive = mostly compound fluorescence or quenching in the first reads; inactive = flat curves in all reads;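 further: potency means the concentration at half of the fitted maximal effect; 0% = DMSO wells and 100% = buffer wells lacking importin beta; nearly all actives have a fitted effect of over 15% in size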
Target sequence (Q14974 whole entry, looked up): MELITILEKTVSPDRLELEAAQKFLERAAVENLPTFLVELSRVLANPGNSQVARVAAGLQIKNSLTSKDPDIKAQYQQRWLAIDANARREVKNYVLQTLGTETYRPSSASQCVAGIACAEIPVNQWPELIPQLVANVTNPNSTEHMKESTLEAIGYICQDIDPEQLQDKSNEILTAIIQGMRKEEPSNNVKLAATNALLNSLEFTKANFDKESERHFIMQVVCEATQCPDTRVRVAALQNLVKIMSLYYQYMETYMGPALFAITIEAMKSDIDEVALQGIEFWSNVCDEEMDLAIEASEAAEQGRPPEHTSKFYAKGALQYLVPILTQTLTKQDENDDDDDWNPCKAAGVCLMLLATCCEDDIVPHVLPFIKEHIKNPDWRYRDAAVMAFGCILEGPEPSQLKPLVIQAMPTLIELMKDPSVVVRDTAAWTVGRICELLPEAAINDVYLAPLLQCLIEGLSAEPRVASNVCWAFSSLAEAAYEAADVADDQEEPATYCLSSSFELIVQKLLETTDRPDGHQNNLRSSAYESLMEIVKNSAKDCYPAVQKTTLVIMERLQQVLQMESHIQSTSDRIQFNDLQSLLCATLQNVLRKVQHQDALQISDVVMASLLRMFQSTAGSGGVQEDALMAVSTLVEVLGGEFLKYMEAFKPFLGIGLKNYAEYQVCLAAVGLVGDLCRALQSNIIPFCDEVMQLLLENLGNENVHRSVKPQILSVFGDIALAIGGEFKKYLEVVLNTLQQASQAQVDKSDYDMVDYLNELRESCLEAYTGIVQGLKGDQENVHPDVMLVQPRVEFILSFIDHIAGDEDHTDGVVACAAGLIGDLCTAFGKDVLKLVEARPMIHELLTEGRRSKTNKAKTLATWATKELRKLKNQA
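FRET biosensor Rango (snurportin 1 IBB between N-terminal EYFP and C-terminal Cerulean), 50 nM in PBS/1 mM DTT/0.02% Tween-20/0.1% BSA, preincubated 5 min RT with compound; 0.125 microM importin beta added, 45 min RT, CFP/YFP FRET ratio read.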
GLA inh pH 4.5 = qHTS Assay for Inhibitors of Human alpha-Galactosidase at pH 4.5 | purified enzyme, 4-MU-alpha-Gal fluorescence, pH 4.5 | activity change, negative = inhibition, % at 105 µM | 230,000 tested, under 10 active | AID 1467, 2008; inconclusive = small, poorly fitted or top-dose-only inhibition, or a rising curve; inactive = flat fitted curve, though single readings scatter; no compound was filed as active;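 further: 0% = full activity with enzyme and -100% = basal without enzyme; dose as in the result columns while the protocol names 77 µM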
miR-21 reporter = qHTS Assay for Modulators of miRNAs and/orActivators of miR-21; 340,000 tested, under 10 active; Potency, µM (titrated, usually from 38.3 µM), without a hit: top-dose reporter change, positive = more light; HeLa miR-21 FLuc reporter, luciferase, 48 h; AID 2288, 2010; active = well fitted rising curve with a large enough effect; inconclusive = small, poorly fitted or top-dose-only effect; inactive = no such curve, though single readings can be large or run the other way;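 further: % of control where 0% means no effect; miR-21 action dims this reporter so a rising signal means less miR-21 action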
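HeLa cells stably expressing CMV-driven firefly luciferase with a downstream miR-21 binding sequence, endogenously expressing miR-21, were treated with titrations (up to about 40uM final) for 48 hours at 37 degree Celsius. Luciferase luminescence was read after lysis.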
Starred values were filed as active, the others as inactive; ? = inconclusive; . = no result given.

The opening three records as a preview:
SMILES	Rango release inh	Rango complex inh	GLA inh pH 4.5	miR-21 reporter
COc1ccc(C(=O)CSc2nc(C)cc(C)n2)cc1[N+](=O)[O-]	-9%	-1.0%	-3	-12%
CC1=C(C(=O)Nc2ccccc2C(F)(F)F)C(c2ccc(C)s2)NC(=S)N1 (stereo unspecified)	4%	-2.1%	-4	1%
Cc1cc(N2CCCCC2)nc2ccc(NC(=O)CCC(=O)NCCC(C)C)cc12	-10%	-3.4%	?	-37%

The list itself, previewed entries included:
SMILES	Rango release inh	Rango complex inh	GLA inh pH 4.5	miR-21 reporter
COc1ccc(C(=O)CSc2nc(C)cc(C)n2)cc1[N+](=O)[O-]	-9%	-1.0%	-3	-12%
CC1=C(C(=O)Nc2ccccc2C(F)(F)F)C(c2ccc(C)s2)NC(=S)N1 (stereo unspecified)	4%	-2.1%	-4	1%
Cc1cc(N2CCCCC2)nc2ccc(NC(=O)CCC(=O)NCCC(C)C)cc12	-10%	-3.4%	?	-37%
O=C(O)c1ccc2c(c1)C(=O)N(NC(=O)c1ccccc1)C2=O	-3%	-1.3%	-23	-37%
COc1ccc2oc(=O)c(-c3cn4ccc(C)cc4n3)cc2c1	-12%	?	9	-19%
CC(=O)C1CCC2C3CC=C4CC(SC(=N)N)CCC4(C)C3CCC12C (stereo unspecified)	-17%	0.5%	.	.
C=CCn1c(SC/C=C/c2ccccc2)nnc1-c1sc(N)nc1C	-14%	-3.6%	-28	-8%
CC1CC(C)CN(C(=O)CN2C(=O)NC3(CCCCCC3)C2=O)C1 (stereo unspecified)	0%	-0.9%	.	.
COC(=O)c1c(NC(=O)CC2SC(N)=NC2=O)sc2c1CCC(C(C)(C)C)C2 (stereo unspecified)	15%	1.0%	-11	-2%
CCN(CC)C(=O)c1sc2nc(-c3ccncc3)[nH]c(=O)c2c1C	0%	-3.8%	4	0%
CC(=O)Oc1cccc(C(=O)Nc2cccc(C(=O)Nc3ccccc3C(=O)O)c2)c1	-10%	0.3%	.	4%
CCC(C(=O)NCCCc1ccccc1)n1nc(C)c2c(C)n(-c3ccccc3)nc2c1=O (stereo unspecified)	-7%	-2.3%	.	1%
CSCCC(NS(=O)(=O)c1ccc(C)cc1)C(=O)N1CCN(C(C)=O)CC1 (stereo unspecified)	-1%	1.0%	.	.
Cc1ccc(OCc2cc(C(=O)N3CCCCCCC3)no2)cc1C	-10%	-0.2%	.	-31%
CCOC(=O)C1CCN(C(=O)CCc2ccc(S(=O)(=O)NC(C)C)cc2)CC1	0%	0.4%	.	3%
COc1cc2c(cc1OC)C(COc1ccccc1OC)N(C(=O)c1ccco1)CC2 (stereo unspecified)	7%	-0.2%	-1	-13%
COCCCn1cnc2c(c1=O)c1nc3ccccc3nc1n2-c1ccc(C)cc1	8%	0.6%	-21	-8%
O=C(CCCn1c(=O)oc2ccccc21)NNC(=O)COc1ccc(F)cc1	10%	-0.1%	.	.
COc1ccccc1C(CC(=O)O)c1ccc2c(c1)OCO2 (stereo unspecified)	0%	-0.4%	.	-2%
O=C(/C=C/Nc1ccccc1Oc1ccccc1)c1ccco1	?	?	-7	-30%
Cc1ccc(NC(=O)CSc2nc3sc(C)cc3c(=O)n2C)cc1	3%	1.4%	.	-3%
CCN(CC)CCSc1nc(O)c(-c2ccccc2)c(=O)[nH]1	-12%	-3.3%	-7	-3%
Cc1ccc2nc(SCC(=O)Nc3c(C)n(C)n(-c4ccccc4)c3=O)[nH]c2c1	-1%	1.1%	2	0%
Cc1cc(C(=O)NCc2ccco2)cs1	20%	0.2%	-5	-6%
Cc1ccc(S(=O)(=O)NCc2ccccc2)cc1C(=O)NCC1CCCO1 (stereo unspecified)	-11%	3.5%	.	.
CC1=NN(c2cccc(F)c2)C(=O)/C1=C/c1ccc(N(C)C)cc1	-6%	3.6%	.	-1%
Cc1ccc(Nc2nnc(SC(C)C(=O)NCC3CCCO3)s2)cc1 (stereo unspecified)	-4%	-1.0%	.	.
COc1ccc(C(=O)NCC(=O)OCC(=O)c2ccc3c(c2)NC(=O)CO3)cc1	25%	-2.4%	-14	-2%
CCCN(CCC)S(=O)(=O)c1ccc(C(=O)N2CCN(C)CC2)cc1	-13%	0.7%	.	-4%
CCOC(=O)c1[nH]cnc1C(=O)Nc1cccc(Cl)c1	9%	0.4%	-2	8%
C/C(=N\OCC(=O)N/N=C/c1ccccc1)c1cccs1	1%	2.7%	-7	-7%
COC(=O)Cc1cc(=O)n(-c2ccccc2)[nH]1	-8%	1.3%	-9	0%
CCOc1ccc(C(=O)n2cc(C(=O)OC)c3ccccc32)cc1	-10%	-6.9%	.	-8%
Cc1cc(C)cc(OCC(=O)OCCN2C(=O)c3ccccc3C2=O)c1	-14%	0.8%	-13	-1%
COc1ccc(CCC(=O)NNC(=S)Nc2cccc(C(C)=O)c2)cc1	-3%	0.7%	-18	-11%
CSCC[C@H](NC(=O)OC(C)(C)C)C(=O)NCC1CCC(C(=O)O)CC1 (stereo partly specified)	9%	-1.4%	0	4%
COc1ccc(C(=O)Nc2ccnc(-c3cccnc3)n2)cc1	43%	1.0%	6	-24%
CCN(CC)CCn1c2ccccc2c2cnc(N)c(C#N)c21	4%	3.6%	0	24%
Cc1c(C(=O)NCc2ccccc2CN2CCCC2)oc2c(F)cccc12	11%	-5.1%	.	.
COC(=O)CSc1nc(N)c(C#N)c(-c2ccc(O)cc2)c1C#N	-1%	-1.4%	-10	0%
Cc1cccc(C)c1NC1=NC2(CCCCC2)N=C(N)N1	2%	-0.1%	-3	2%
COc1ccc(N2CCN(S(=O)(=O)CCNC(=O)C3CC3)CC2)cc1	-14%	-3.3%	.	.
Cc1ccc(S(=O)(=O)N2CCOCC2)cc1NC(=O)COC(=O)c1cccnc1Cl	3%	-1.9%	1	-2%
O=C(NCCC1=CCCCC1)C1CCN(S(=O)(=O)N2CCOCC2)CC1	-12%	?	4	-1%
CC1CCC(NC(=O)N(CCCl)N=O)CC1 (stereo unspecified)	-11%	0.6%	8	.
COc1ccc(-c2cc(-c3ccc(OC)c(OC)c3)n[nH]2)c(O)c1	1%	-1.5%	0	-59%
Cc1cn([C@H]2C[C@H](O)[C@@H](CCC(=O)NCCCn3ccnc3)O2)c(=O)[nH]c1=O	1%	-1.5%	.	.
Cc1ccc(N2CCN(C(=O)c3ccccc3NC(=O)C3CC=CCC3C(=O)O)CC2)cc1 (stereo unspecified)	-20%	-0.4%	6	-3%
COc1cccc(C2SCC(=O)N2c2ccc(C)cc2)c1OC (stereo unspecified)	9%	-0.1%	-5	-7%
Cc1cccc2sc(NC(=O)c3cccc(S(=O)(=O)N4CCc5ccccc54)c3)nc12	15%	1.0%	3	6%
CN1C(=O)/C(=C2\SC(=S)N(NC(=O)c3cccnc3)C2=O)c2ccccc21	16%	1.3%	.	3%
C/C(CC(=O)Nc1ccc2c(c1)OCO2)=N\NC(=O)OC(C)(C)C	3%	-2.2%	4	-43%
COc1ccc(/C=C2\CCCC3C2=NC(=S)NC3c2ccc(OC)cc2)cc1 (stereo unspecified)	2%	4.8%	4	19%
COc1ccc(C(=O)N/N=C/c2ccc(OC(=O)c3ccccc3)cc2)cc1	-5%	3.3%	6	-9%
CCOC(=O)Cc1csc(NC(=O)c2cc(=O)c3ccccc3o2)n1	7%	2.8%	-5	-26%
Cc1c(C=O)c2ccccc2n1CC(=O)NCc1ccccc1	-16%	-1.8%	4	-2%
CCOc1ccc(C)cc1S(=O)(=O)n1ccnc1	21%	1.5%	-2	-12%
CCN(CC)CCN1C(=O)C2C(C(=O)Nc3ccc(Br)cc3)C3C=CC2(O3)C1C(=O)NC1CCCCC1 (stereo unspecified)	3%	-1.0%	.	1%
O=C(NCCSc1c(-c2ccccc2)[nH]c2ccccc12)c1cc2ccccc2oc1=O	1%	-0.4%	-4	-9%
O=C(Nc1c(Cl)cc(Cl)cc1-c1nc2ccccc2s1)c1ccc(Br)o1	-20%	?	-9	-5%

(cont.)
SMILES	Rango release inh	Rango complex inh	GLA inh pH 4.5	miR-21 reporter
Cc1cc(C)c2nc(-c3ccccn3)cc(C(=O)Nc3ccc(S(=O)(=O)Nc4cc(C)on4)cc3)c2c1	-5%	-0.9%	0	-3%
CNC(=O)c1ccc(NC(=O)C2CCN(c3ncnc4sc(C)c(C)c34)CC2)cc1	14%	0.3%	.	4%
c1ccc(C(Nc2cccnc2)c2ccccc2)cc1	9%	0.5%	.	.
Cc1[nH]c(=O)[nH]c(=O)c1S(=O)(=O)N1CCCC(C(=O)NCc2ccc3c(c2)OCO3)C1 (stereo unspecified)	-19%	1.4%	-1	0%
Cn1c(=O)[nH]c(=O)c2c1nc(Br)n2Cc1ccccc1Cl	-5%	-1.7%	1	11%
Cc1c(O)ccc2c3c(c(=O)oc12)CCC(C)C3 (stereo unspecified)	?	?	?	-14%
CCN(Cc1ccncc1)C(=O)C1CCC(=O)N(Cc2ccc(Cl)cc2)C1 (stereo unspecified)	5%	0.0%	.	-4%
C=CCN(C(=O)CCC(=O)O)C1CC(=O)N(c2ccc(OCCC)cc2)C1=O (stereo unspecified)	1%	1.9%	-1	-7%
Cc1ccc(CNS(=O)(=O)c2ccc(C(C)(C)C)cc2)n1C	-1%	-1.8%	2	0%
O=C(N/N=C/c1ccncc1)c1cccc([N+](=O)[O-])c1	.	.	3	-1%
C=CCn1c(SCc2nc3ccccc3[nH]2)nnc1-c1cccc(OC)c1	-15%	?	-10	3%
CS(=O)(=O)c1ccc(Cl)c(NC(=O)COC(=O)c2ncc(Cl)c(Cl)c2Cl)c1	-6%	1.9%	.	.
CC1(C)CCC(=O)c2ccccc21	-6%	3.3%	.	.
CC(C)(C)OC(=O)NNC(=S)NCc1ccc(Cl)cc1	1%	-0.5%	2	-3%
CC(=O)OC(C)(C)C1Cc2cc3ccc(=O)oc3cc2O1 (stereo unspecified)	3%	-0.3%	11	-20%
CCCc1cc(=O)[nH]c(SCC(=O)C(C)(C)C)n1	1%	-0.8%	5	0%
O=C(CN1CCN(S(=O)(=O)c2ccc(F)cc2)CC1)Nc1ccc(Cl)cn1	0%	4.7%	.	-4%
O=[N+]([O-])c1cc([N+](=O)[O-])c(Oc2cc(F)ccc2F)cc1NN1CCCCC1	-6%	-0.2%	.	0%
CCC(C(=O)NN1C(=O)c2ccccc2C1=O)c1ccccc1 (stereo unspecified)	-4%	-0.4%	1	6%
Cc1c(NC2(C#N)CCCC2)c(=O)n(-c2ccccc2)n1C	4%	2.7%	-3	0%
Cc1c(C)n(Cc2ccccc2)c2ccc(C(=O)NCCCN3CCOCC3)cc12	-12%	2.6%	.	0%
Cc1[nH]n(-c2ccccc2)c(=O)c1C=NCC1CCCO1 (stereo unspecified)	-1%	-2.9%	2	-26%
CCOC(=O)c1sc(NC(=S)NC(=O)c2cccc(OC)c2)nc1C	3%	4.5%	.	-15%
CCC(C)c1ccc(NC(=O)NCc2cccnc2)cc1 (stereo unspecified)	-5%	2.7%	.	-16%
CCn1cc(C(=O)OCC(=O)Nc2c(C)n(C)n(-c3ccccc3)c2=O)c(=O)c2ccc(C)nc21	2%	1.2%	-6	-2%
Cc1cc(Cl)c2oc(C(=O)N3CCN(C(=O)c4ccco4)CC3)c(C)c2c1	2%	1.2%	.	-91%

Part of the list above in order of molar mass, rising.
SMILES	Rango release inh	Rango complex inh	GLA inh pH 4.5	miR-21 reporter
CCC(C)c1ccc(NC(=O)NCc2cccnc2)cc1 (stereo unspecified)	-5%	2.7%	.	-16%
Cc1[nH]n(-c2ccccc2)c(=O)c1C=NCC1CCCO1 (stereo unspecified)	-1%	-2.9%	2	-26%
Cc1c(NC2(C#N)CCCC2)c(=O)n(-c2ccccc2)n1C	4%	2.7%	-3	0%
Cc1cc(Cl)c2oc(C(=O)N3CCN(C(=O)c4ccco4)CC3)c(C)c2c1	2%	1.2%	.	-91%

A portion of the library, so the mix of outcomes need not match the whole.
